2A StopGo – lowers the luciferase signal of an FMDV 2A StopGo reporter | AID 1159524 | human cells with a luciferase reporter of 2A StopGo recoding; control for the full effect not named in the record | Potency, µM (doses to about 57.9 µM), inactives show at the highest dose signal change, negative = less light | actives 1.2% (n = 410,000); active = well fitted falling curve with a large enough effect; inconclusive = small, poorly fitted or top-dose-only effect; inactive = no such curve, though single readings can be large or run the other way; tested in HEK293T cells; also: % is scaled to controls: 0 for no effect and ±100 for the full control effect; nearly all actives have a fitted effect of over 45% in size; luciferase light after 4 h
NS1 function inh – influenza NS1 inhibition; actives 0.4% (n = 270,000); AID 2326; Potency, µM (titrated, usually from 46.1 µM), inactives show at the highest dose activity, positive = more growth; S. cerevisiae slowed by influenza A NS1, growth recovery by OD600; active means well fitted rising curve with a large enough effect; inconclusive means small, poorly fitted or top-dose-only effect; inactive means no such curve, though single readings can be large or run the other way; also: nearly all actives have a fitted effect of over 50% in size
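A cell-based growth assay was used: compounds that relieve NS1-induced slow growth of budding yeast raise OD600. Assay medium was yeast nitrogen base with ammonium sulphate and -URA supplement, pH 6.0, with 2% galactose.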
Marburg entry inh – blocks Marburg virus binding to or entry into cells; Marburg virus pseudotyped entry inhibition, cell reporter; control for the full effect not named in the record; about a third of the inactives were read at about 46 µM; Potency, µM (titrated, usually from 37.8 µM), for inactives: at the highest dose activity change, negative = inhibition, hits mostly inhibitors; actives 1.8% (n = 300,000); active = well fitted inhibition curve with a large enough effect; inconclusive = small, poorly fitted or top-dose-only effect, or effect the other way; inactive = flat fitted curve, though single readings scatter; tested in HEK293 cells; about a fifth of its hits are not listed in these tables; also: % is scaled to controls: 0 for no effect and ±100 for the full control effect; luciferase read-out
SARS PLpro yeast – inhibitors of SARS-CoV papain-like protease in yeast | S. cerevisiae expressing SARS-CoV PLpro, growth rescue; control for the full effect not named in the record | AID 485353 | Potency, µM (titrated, usually from 32.9 µM), without a hit: top-dose activity, positive = growth rescue | actives 0.19% (n = 330,000); active means well fitted rising curve with a large enough effect; inconclusive means small, poorly fitted or top-dose-only effect; inactive means no such curve, though single readings can be large or run the other way; also: 0% is about no effect; nearly all actives have a fitted effect of over 55% in size; growth read by luminescence after 48 h
Lassa entry inh – blocks Lassa virus binding to or entry into cells; Potency, µM (top dose mostly 37.9 µM), for inactives: at the highest dose activity change, negative = inhibition, most hits filed as inhibitors; AID 540256; actives 1.2% (n = 300,000); Lassa virus pseudotype entry inhibition, cell reporter; control for the full effect not named in the record; active means well fitted inhibition curve with a large enough effect; inconclusive means small, poorly fitted or top-dose-only effect, or effect the other way; inactive means flat fitted curve, though single readings scatter; tested in HEK293 cells; also: % is scaled to controls: 0 for no effect and ±100 for the full control effect; nearly all actives have a fitted effect of over 50% in size; luciferase read-out
Cruzain noTriton – inhibitors of Trypanosoma cruzi cruzain without detergent; Potency, µM, inactives show max response, negative = inhibition, usual class: inhibitors; P25779; purified cruzain, Z-FR-AMC fluorescence, no detergent; actives 2.3% (n = 200,000); AID 1476;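 also: plate controls were enzyme without inhibitor for no effect and buffer without enzyme for full effect; nearly all actives have a fitted effect of over 40% in size; top concentration of the series not given in the record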
Target sequence (P25779 123-467 limits assumed): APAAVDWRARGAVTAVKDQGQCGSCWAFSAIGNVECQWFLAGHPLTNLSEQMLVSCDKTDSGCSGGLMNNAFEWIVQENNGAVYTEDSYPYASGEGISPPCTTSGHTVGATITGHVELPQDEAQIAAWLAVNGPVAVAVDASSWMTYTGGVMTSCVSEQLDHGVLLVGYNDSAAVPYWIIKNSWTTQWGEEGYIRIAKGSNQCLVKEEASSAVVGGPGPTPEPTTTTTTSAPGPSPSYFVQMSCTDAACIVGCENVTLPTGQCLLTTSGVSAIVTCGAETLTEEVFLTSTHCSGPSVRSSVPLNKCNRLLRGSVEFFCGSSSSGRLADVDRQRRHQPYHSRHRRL
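Purified cruzain at 1.5 nM, pre-incubated 15 min with compound at room temperature in 100 mM sodium acetate pH 5.5, 5 mM DTT, 0.00005% Triton X-100. Reaction started with 2 uM Z-FR-AMC; AMC fluorescence increase over 60 s gives rate.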
RE007 growth inh – less growth of the S. pombe RE007 Vpr strain; S. pombe RE007 Vpr strain, BacTiter-Glo ATP luminescence, 24 h; control for the full effect not named in the record; Potency, µM (highest dose often 92.2 µM), for the others: top-dose activity change, negative = less growth; actives 0.21% (n = 360,000); active = well fitted falling curve with a large enough effect; inconclusive = small, poorly fitted or top-dose-only effect; inactive = no such curve, though single readings can be large or run the other way;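 also: % is scaled to controls: 0 for no effect and ±100 for the full control effect; nearly all actives have a fitted effect of over 50% in size; the assay follows cell death caused by Vpr and the record does not say whether a fall means rescue or toxicity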
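Fission yeast strain RE007, carrying one chromosomally integrated HIV-1 vpr copy, was seeded at OD 0.01 in PMG+AL medium with 23 nL pinned compound. After 24 h at 30 °C and 99% humidity, viability was read by BacTiter-Glo luminescence.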
Cruzain inh Det – inhibitors of Trypanosoma cruzi cruzain with detergent. P25779. purified cruzain, Z-FR-AMC fluorescence, 0.01% Triton. Potency, µM, without a hit: max response, negative = inhibition, usual class: inhibitors. actives 0.43% (n = 200,000). AID 1478;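 also: plate controls were neutral wells for no effect and buffer without enzyme for full effect; nearly all actives have a fitted effect of over 40% in size; top concentration of the series not given in the record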
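Sodium acetate buffer (100 mM, pH 5.5) containing 5 mM DTT and 0.01% Triton X-100 hosted 1.5 nM cruzain and test compound for 15 min at room temperature. Cleavage of 2 uM Z-FR-AMC was then tracked by fluorescence.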
The depositor's hits bear a star; ? = inconclusive; / = not tested or not shown; & = joins results of further samples; [ ] = remark or other dose. Unless noted, calls follow the shape of the dose curve; as a rule, active = well fitted curve in the direction sought with a large enough effect; inconclusive = small, poorly fitted or top-dose-only effect, or another doubt; inactive = no such curve, though single readings can be large; an effect the other way counts as inactive or inconclusive. Potency is read from the fitted curve at half-maximal effect.

Structure	2A StopGo	NS1 function inh	Marburg entry inh	SARS PLpro yeast	Lassa entry inh	Cruzain noTriton	RE007 growth inh	Cruzain inh Det
O=C(/C=C/Nc1ccccc1Br)c1ccccn1	2.2µM*	-92%	?	/	1.1µM*	-8%	-25%	3.0%
O=C(COC(=O)c1ccc2[nH]c3c(c2c1)CCCC3)NC1CCS(=O)(=O)C1 (configuration not stated)	?	/	?	1%	-26%	/	10%	/
CCOCCCNC(=S)N1CCN(C(=O)C(=O)Nc2ccc(C(=O)OC)cc2)CC1	0%	11%	-17%	29%	-3%	-8%	12%	-2.1%
Nc1cccc2c1C(=O)N(Cc1nnc(-c3ccccc3Br)o1)C2=O	9%	-7%	-6%[46.1 µM]	-3%	-27%[46.1 µM]	/	12%	/
COc1ccccc1N1CC(C(=O)Nc2cc(C(F)(F)F)ccc2N2CCCC2)CC1=O (configuration not stated)	-3%	/	0%	-5%	?	/	16%	/
CN(C)CCCNc1ncnc2scc(-c3ccccc3)c12	-12%	-5%	?	0%	-9%	/	4%	/
Nc1nnc(CSCc2ccc(Cl)cc2Cl)s1	-13%	-4%	-9%	-11%	-5%	-21%	15%	-8.3%
CCCc1cc(=O)oc2cc(C)cc(OCC(=O)NC(Cc3ccc(Cl)cc3)C(=O)O)c12 (configuration not stated)	-16%	?	/	1%	/	/	4%	/
CCOc1ccccc1NC(=O)N1CCC(N2CCN(Cc3ccccc3)C(=O)C2=O)CC1	-14%	/	/	/	17%[46.1 µM]	-1%	/	1.5%
Cc1cc(C)nc(-n2nc(C)cc2NC(=O)CN2CCC(C)CC2)n1	-19%	-13%	0%	12%	-20%	-9%	?	0.3%
CCOC(=O)c1ccc(N2C(=O)C=C(N3CCOCC3)C2=O)cc1	-17%	3%	/	0%	/	/	-2%	/
O=C(NNC(=O)c1ccccc1F)c1ccc2nc[nH]c2c1	10%	1%	15%[46.1 µM]	3%	?	/	7%	/
CN1C(=O)CC(Sc2ccccc2C(=O)O)C1=O (configuration not stated)	6%	-5%	?	-3%	2%	-6%	-26%	3.5%
CCOC(=O)CNC(=O)c1cc(-c2ccc3c(c2)OCCO3)oc1C	59%[activator]	-2%	15%	-9%	-16%	1%	30%	4.8%
Cc1noc(C)c1COC(=O)c1cc2c3ccccc3n(C)c2s1	-18%	-69%	-28%	?	?	-17%	?	-8.3%
Cc1cc(C)n(C(=O)C(C(=O)c2ccccc2)C(C)C)n1 (configuration not stated)	-16%	0%	0%	2%	?	-11%	1%	-5.7%
C/C(=N\NC(=O)CN1CCCCC1)c1cccc([N+](=O)[O-])c1	40%[activator]	/	?	/	?	/	7%	/
Cc1cnc(-c2nnc(N(C)C(=O)C3CCCO3)s2)cn1 (configuration not stated)	37%[activator]	-5%	10%[46.1 µM]	-2%	?	-5%	-10%	-1.2%
COc1ccc(-c2noc(CCC(=O)Nc3nc4ccccc4s3)n2)cc1	-17%	-2%	23%	7%	0%	?	9%	4.0%
CCSc1ncc(Cl)c(C(=O)Nc2ccccc2Cl)n1	-18%	-4%	/	0%	/	/	3%	/
COc1cc(-c2noc(-c3cccs3)n2)cc(OC)c1OC	20%	-13%	-6%	14%	-13%	-8%	3%	-2.3%
Cc1ccc(CNC(=O)C2CCN(S(=O)(=O)N3CCOCC3)CC2)cc1	-14%	-10%	21%	6%	-1%	4%	-5%	2.4%
O=C(CN1CCN(c2ncc(C(F)(F)F)cc2Cl)CC1)NCCNc1ncc(C(F)(F)F)cc1Cl	-25%	2%	?	-7%	?	?	-25%	-12%
C/C(=N\NC(=O)c1cccc(F)c1)c1ccc(Br)s1	25%	-14%	-26%	1%	?	-13%	11%	3.6%
COc1ccc(C(=O)c2cc3cccc(OC)c3o2)cc1	33%[activator]	-11%	10%[46.1 µM]	-3%	?	/	-13%	/
CCOC(=O)C1CCN(C(=O)CN2C(=O)NC(C)(c3ccc4cc(OC)ccc4c3)C2=O)CC1 (configuration not stated)	-1%	/	?	5%	0%[46.1 µM]	/	-5%	/
CS(=O)(=O)Nc1ccc(C(=O)Nc2ccc3c(c2)OCO3)cc1	23%	/	?	-4%	?	/	11%	/
COc1ccc(C(=O)NCCc2c[nH]c3ccccc23)cc1OC	-4%	9%	-8%[46.1 µM]	-14%	-20%[46.1 µM]	/	13%	/
COC(=O)c1ccc(C)c(NS(=O)(=O)c2ccc(NC(C)=O)cc2)c1	4%	4%	-18%	0%	?	-10%	13%	0.0%
Cc1csc(=O)n1CCC(=O)OCC(=O)Nc1ccc(C(N)=O)cc1	-13%	/	?	1%	-3%	/	?	/
Cc1nc(-c2ccc(C(=O)O)cc2)cs1	33%[activator]	-149%	18%	-6%	3%	-7%	4%	1.3%
COc1ccc(NC(=S)N2CCCC2c2ccc(OC)c(OC)c2)cc1 (configuration not stated)	0%	/	?	-3%	?	/	18%	/
CCOc1cccc(CN2CCN(CCc3ccccc3)C(CCO)C2)c1O (configuration not stated)	-16%	0%	/	1%	/	/	-7%	/
CCCCNC(=S)N(CCCO)Cc1cc2cc3c(cc2[nH]c1=O)OCCO3	-19%	9%	-7%	-4%	-24%	/	19%	/
COc1ccc(C(=O)NCCS(=O)(=O)NCc2ccc(C)cc2)cc1	5%	/	4%[46.1 µM]	2%	-18%	/	8%	/
CN(C)CCCN(C(=O)c1ccc(S(=O)(=O)N2CCc3ccccc3C2)cc1)c1nc2c(F)cc(F)cc2s1	-21%	/	-18%[46.1 µM]	14%	6%	/	-3%	/
Cn1c(CC(=O)Nc2ccccc2)nnc1SCC(=O)c1ccccc1	-12%	11µM*	0%&0%	-2%	1%	-1%	-2%	0.8%
COc1ccc(C(=O)Cc2ccccc2C(=O)O)cc1	-13%	/	3%	/	17%[46.1 µM]	/	1%	/
COc1ccccc1CNCC(=O)Nc1ccccc1-n1cccc1	-6%	-9%	/	0%	/	/	-1%	/
CCOCCCNC(=O)C(NC(=O)c1ccc(=O)[nH]c1)c1ccccc1 (configuration not stated)	0%	7%	?	-1%	-13%	13%	-2%	-3.6%
Clc1cccc(C2Nc3cccc4cccc(c34)N2)c1Cl	-23%	-28%	?	-7%	1%[46.1 µM]	/	-29%	/
O=C1NCCCCC1NS(=O)(=O)c1cccc(C(F)(F)F)c1 (configuration not stated)	1%	-5%	/	1%	/	/	5%	/
N#Cc1nc(-c2ccccc2F)oc1NCCN1CCOCC1	-19%	-8%	/	4%	/	-2%	-3%	-18%
CC(=O)Nc1cccc(N(C(=O)C2COc3ccccc3O2)C(C(=O)NC2CCCCC2)c2cn(C)nc2C)c1 (configuration not stated)	-3%	2%	7%[46.1 µM]	-1%	?	/	10%	/
Cc1ccccc1C(=O)Nc1c(C(=O)N(CCN(C)C)Cc2ccco2)oc2ccccc12	-3%	8%	/	4%	/	/	-12%	/
Cc1cc(C)n(-c2nnc3n2N=C(c2ccccc2)CS3)n1	-11%	-15%	16%	-9%	-17%	-6%	-1%	-3.5%
O=c1cc(-c2ccco2)nc(-c2cccs2)o1	-18%	?	-6%	7%	-5%	-16%	6%	-26%
O=C(CCNC(=O)C1CCN(S(=O)(=O)c2ccccc2)CC1)Nc1cccc(C(F)(F)F)c1	-11%	-28%	/	8%	/	/	6%	/
CCOc1ccccc1NC(=O)CSc1ccc2nnc(-c3cccnc3)n2n1	-24%	/	3%[46.1 µM]	0%	0%	/	-4%	/
COC(=O)c1ccccc1NC(=O)Oc1ccc(C(C)C)cc1	14%	-1%	9%	5%	19%	6%	-13%	1.2%
COc1ccc2nc(C)cc(N/N=C/c3cccc(OC)c3O)c2c1	7%	-52%	?	-9%	?	/	-14%	/
Cc1c(C(C)(C)O)[nH]c2cc(C(F)(F)F)ccc12	?	-49%	/	-16%	/	/	-15%	/
C=CCn1c(SCCN)nnc1-c1cccc(S(=O)(=O)N2CCOCC2)c1	-8%	/	?	/	9%	/	-11%	/
O=C(CSc1nc2ncccc2[nH]1)c1cccc([N+](=O)[O-])c1	-28%	?	?	-1%	-10%	-17%	4%	-5.3%
O=C(CC1CCOCC1)Nc1ccc(Cl)c(Cl)c1	20%	-4%	1%[46.1 µM]	0%	3%[46.1 µM]	/	16%	/
COc1ccc(S(=O)(=O)c2ccc(OCC3CO3)cc2)cc1 (configuration not stated)	3%	/	-1%[46.1 µM]	-2%	-5%[46.1 µM]	/	3%	/
c1ccc(NC2=Nc3ccccc3CS2)cc1	54%[activator]	-3%	15%	8%	-2%	?	-23%	3.2%
O=C(NC(NNc1ccc([N+](=O)[O-])cc1)(C(F)(F)F)C(F)(F)F)c1ccccc1Cl	?	-36%	24%	-41%	5%	-17%	1%	-8.8%
Cc1c(O)c(=O)c2ccccc2n1C	-27%	16%	42%[14.2 µM]	5%	-4%	?	-1%	-2.9%
O=C(CSc1nnc(NC(=O)C2CC(=O)N(c3ccccc3)C2)s1)NCC1CCCO1 (configuration not stated)	-7%	1%	21%	15%	5%	/	-1%	/
Cc1cc(C)c(NC(=O)C2CCCO2)c(C)c1 (configuration not stated)	12%	/	11%	/	-1%	/	7%	/
